TRPML1 inh – blocks the human TRPML1 channel; Q9GZU1; TRPML1-inducible cells, Ca2+ dye fluorescence, FDSS; hits give low values; inhibition of EC80 agonist-evoked calcium signal; activity change, negative = inhibition, % (concentration not given with the values); 390,000 compounds, 0.02% hits; in the data active means activity change below about -50%; inconclusive means about -30% to -50%; inactive means above about -30%;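 further: stimulus is agonist 54-4 at its EC80 concentration; on the % scale 0 is the no-effect control and ±100 the full control effect; the text of the record puts the active cut at -80%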
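Tet-induced TRPML1-DL cells loaded with Ca8 no-wash calcium dye were read kinetically on FDSS. Compound addition was followed by EC80 agonist 54-4 (4 uM final); inhibition was read over 110 s.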
TRPML1 ag – human mucolipin-1 channel agonism. 410,000 compounds, 0.12% hits. TRPML1-expressing cells, Ca2+ dye fluorescence, FDSS; host cell line not named in the record; reference of the full effect not given here. activation, % (no concentration beside the values). Q9GZU1. AID 624414; in the data active = activation above about 50%; inconclusive = about 30% to 50%; inactive = below about 30%; further: 0% is about no effect; the text of the record puts the active cut at 80%
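TRPML1-DL cells, Tet-induced overnight (~16 h, 37 degrees C), loaded 45-90 min at room temperature with Ca8 no-wash calcium dye plus quencher. FDSS fluorescence: 10 s baseline, compound pin-transfer, 110 s agonist read, then EC80 54-4 (4uM final) and 110 s antagonist read.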
Six1-Eya2 inh – Six1/Eya2 interaction inhibition; AID 651725; 360,000 compounds, 0.56% hits; activity change, % (no concentration beside the values); Q15475+O00167; AlphaScreen GST-Six1/His-Eya2 binding, biochemical; hits give low values; control for the full effect not named in the record; in the data active = activity change below about -65%; inconclusive = about -30% to -65%; inactive = above about -30%; further: on the % scale 0 is the no-effect control and ±100 the full control effect
Target sequence (O00167 whole entry, looked up): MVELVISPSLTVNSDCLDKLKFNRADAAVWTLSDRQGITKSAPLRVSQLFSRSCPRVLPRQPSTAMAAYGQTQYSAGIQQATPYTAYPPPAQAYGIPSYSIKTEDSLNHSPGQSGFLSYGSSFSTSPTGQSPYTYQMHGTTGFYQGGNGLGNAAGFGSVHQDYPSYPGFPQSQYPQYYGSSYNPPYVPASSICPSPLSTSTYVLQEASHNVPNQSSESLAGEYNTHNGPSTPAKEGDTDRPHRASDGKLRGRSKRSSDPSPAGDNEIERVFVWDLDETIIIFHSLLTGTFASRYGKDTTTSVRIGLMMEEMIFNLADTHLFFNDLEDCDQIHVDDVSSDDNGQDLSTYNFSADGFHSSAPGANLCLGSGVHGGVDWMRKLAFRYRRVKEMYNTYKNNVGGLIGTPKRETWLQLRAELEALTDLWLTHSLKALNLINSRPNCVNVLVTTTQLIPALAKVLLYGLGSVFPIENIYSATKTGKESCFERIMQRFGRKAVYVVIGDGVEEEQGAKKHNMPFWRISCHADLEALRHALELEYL
Target sequence (Q15475 whole entry, looked up): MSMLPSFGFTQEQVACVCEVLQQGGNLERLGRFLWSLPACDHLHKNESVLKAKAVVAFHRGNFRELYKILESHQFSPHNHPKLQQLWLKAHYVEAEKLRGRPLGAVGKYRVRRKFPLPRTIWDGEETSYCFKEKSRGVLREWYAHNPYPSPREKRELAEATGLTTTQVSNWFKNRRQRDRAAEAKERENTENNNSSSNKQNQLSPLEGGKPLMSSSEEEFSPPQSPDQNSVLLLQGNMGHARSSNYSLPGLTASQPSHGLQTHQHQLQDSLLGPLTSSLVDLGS
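Six1/Eya2 binding was read as AlphaScreen signal after compounds were pinned into GST-Six1 plus His-tagged Eya2 (5X stock 250/500 nM) in pH 8.0 Tris/NaCl/TCEP buffer, beads added, then incubated 1 h, 37 C, dark.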
CtBP-E1A blk – inhibitors of CtBP/E1A interaction; AlphaScreen GST-E1A/His-CtBP binding, 1536-well; hits give low values; control for the full effect not named in the record; activity change, % (no concentration beside the values); 340,000 compounds, 0.49% hits; AID 651724; in the data active means activity change below about -65%; inconclusive means about -30% to -65%; inactive means above about -30%; further: on the % scale 0 is the no-effect control and ±100 the full control effect
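Steps: dispense buffer (Tris pH 8.0, NaCl 300 mM, TCEP 1 mM, BSA, Tween 20); add 5X protein mix (GST-E1A, His-CtBP, 125 nM each); pin 23 nL compound; 2 h at 37 °C, dark; add 5X beads (50 ug/mL); 1 h; read.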
TRPV1 potentiator – enhances activation of the human vanilloid receptor TRPV1; Q8NER1; TRPV1-expressing cells, Fluo-8 calcium influx, capsaicin EC20 potentiation; host cell line not named in the record; control for the full effect not named in the record; potentiation, % at 8.33 µM; 320,000 compounds, 0.02% hits; AID 540277; active means potentiation above 80%; inconclusive means 30% to 80%; inactive means below 30%; further: 0% is about no effect
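Cells expressing TRPV1 were dye-loaded with Fluo-8 and read kinetically: 10 s baseline, 3 min after compound (agonist portion), then 2 min after EC20 capsaicin (allosteric enhancer portion). Calcium-bound dye fluorescence at 480/520 nm.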
D2 PAM – positive allosteric modulators of human D2 dopamine receptor; P14416; DiscoveRx D2 beta-arrestin cells, luminescence, 90 min; 100% = 57 uM dopamine signal; potentiation, % (test concentration not listed); 360,000 compounds, 0.23% hits; AID 624464; active = potentiation of 50% or more; inconclusive = 30% to 50%; inactive = 30% or less;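 further: compound concentration not given in the record; tested on top of an EC20 dose of dopamine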
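PathHunter D2 cells, attached overnight at 37 deg C, received compound in DMSO plus dopamine at EC20 (50 nM final) for 90 min at 37 deg C. Beta-arrestin recruitment was read as luminescence after 1 h with detection reagent at ambient temperature.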
Starred values were filed as active, the others as inactive; u = inconclusive; x = no result given.

SMILES	TRPML1 inh	TRPML1 ag	Six1-Eya2 inh	CtBP-E1A blk	TRPV1 potentiator	D2 PAM
O=Cc1coc2ccc3ccccc3c2c1=O	10	0.2	-1	-11	-19	7
O=C1CC(c2ccccc2)CC(O)=C1C=Nc1ccc(Cl)cc1 (stereo not drawn)	-9	0.6	-3	x	5	-10
Cn1c(=O)c2[nH]c(COc3ccc(C(C)(C)C)cc3)nc2n(C)c1=O	11	1.7	0	-6	20	10
OCCNCCCCOc1ccc(OCc2ccccc2)cc1	-10	2.0	-21	u	-8	-6
O=C(N/N=C/c1oc(O)c2ccccc12)c1ccccc1	2	-1.3	-13	x	-14	-3
COc1ccccc1NC(=O)CN1CCC(C(=O)c2ccc(F)cc2)CC1	-3	1.1	-8	0	-15	-45
Cc1ccc(/C=N/NC(=O)c2nc3nc(C)cc(C)n3n2)cc1	5	1.6	-4	5	-1	21
Cc1ccc(S(=O)(=O)N2CCN(C(=O)C(C)Cn3cncn3)CC2)cc1 (stereo not drawn)	-6	0.3	25	21	16	6
O=C(c1cc(COc2ccc(F)cc2Cl)on1)N1CCCCC1c1cccnc1 (stereo not drawn)	-2	-0.6	1	-7	11	-23
COc1ccc(-c2noc(-c3ccccc3C(=O)NCC3CCCO3)n2)cc1 (stereo not drawn)	-5	-0.3	0	-22	20	5
CCc1cc2c(=O)c(-c3nc4ccccc4n3C)c(CCCC(=O)O)oc2cc1OC(=O)C(C)(C)C	25	0.9	-9	u	5	-2
O=c1c2ccccc2nnn1Cc1ccccn1	14	2.1	-1	6	11	0
CC(NC(=O)Cn1cnnn1)c1cccc(C(F)(F)F)c1 (stereo not drawn)	27	0.8	0	3	u	-4
CC(NC(=O)/C(=C\c1ccco1)NC(=O)c1ccccc1Br)C(=O)O (stereo not drawn)	10	1.4	2	-15	-2	-12
CCc1nc(SCC(=O)c2cccs2)c2oc3ccccc3c2n1	-5	0.4	5	7	12	-5
CC(Oc1ccc(Cl)cc1Cl)C(=O)Nc1cccnc1 (stereo not drawn)	5	-0.7	21	24	-6	-11
Cc1cccc2cc(CN(CC3CCCO3)C(=S)Nc3ccccc3)c(=O)[nH]c12 (stereo not drawn)	33	4.9	11	-14	-16	-13
COC(=O)Nc1cc(C(=O)c2ccc(Cl)cc2Cl)c[nH]1	-2	1.0	-10	x	-13	-10
CC(C)Cn1c(=O)c(C(=O)N/N=C/c2cccc(F)c2)c(O)c2ccccc21	-1	0.9	4	6	16	-8
Cc1ccc(NC(=S)NCc2ccc3c(c2)cc(C)n3C)c(C)c1	16	1.7	u	x	5	-10
Cc1cc2nc(NC(=O)C3(C)CCCN(C(C)C)C3)[nH]c2cc1C (stereo not drawn)	0	-0.4	22	8	x	-12
CC(C)(C)OC(=O)C[C@@H]1C/C=C\C[C@@H](CC(=O)N[C@@H](CO)Cc2ccccc2)C(=O)NC[C@@H](c2ccccc2)OC1=O	2	0.0	1	x	x	8
C/C(=N/O)c1ccc(Oc2cnccn2)cc1	-4	2.3	9	3	9	-11
CN1C(=O)[C@H]2[C@@H](/C=C/c3ccccc3)N3C(=O)CN(Cc4ccccc4)C(=O)[C@@]3(C)[C@H]2C1=O	1	0.0	-2	-1	7	-14
COc1ccc([N+](=O)[O-])cc1N(CC(=O)NC(C(C)C)C(C)C)S(C)(=O)=O	17	-0.9	9	x	3	0
SMILES	TRPML1 inh	TRPML1 ag	Six1-Eya2 inh	CtBP-E1A blk	TRPV1 potentiator	D2 PAM
CC(=O)CCC(=O)NCCc1ccccc1F	3	-0.5	21	0	4	-14
Cc1ccc(-c2nc(SCC(N)=O)c(C#N)c3c2CCCC3)cc1	26	2.1	-6	-13	8	-16
CCC1(C)Cc2c(sc3[nH]c(=S)[nH]c(=S)c23)CO1 (stereo not drawn)	0	2.4	-6	x	6	-27
COc1ccccc1C(=O)NN(C)C1=NS(=O)(=O)c2ccccc21	3	-0.1	2	0	-6	0
CCOc1ccccc1-c1cc(C(=O)N/N=C/c2cccnc2)c2ccccc2n1	15	1.8	12	2	x	-4
CC1CC(C)CN(C(=O)CSc2nc(Cc3cccs3)nc3ccccc23)C1 (stereo not drawn)	61	4.7	-2	-6	13	0
Cc1ccc(C(=O)NC2CCCCC2)cc1S(=O)(=O)N1CCCC1	20	1.2	-1	8	7	-50
COc1ccc(-c2nc3c(c(SCC(=O)N4CCOCC4)n2)COC(C)(C)C3)cc1	25	0.5	0	5	-10	-8
CC(C)(C)C(C(=O)O)N1CCS(=O)(=O)CC1 (stereo not drawn)	18	-0.4	3	2	15	2
COc1cc(OC)c(C(=O)NCCCn2ccnc2)cc1OC	-8	-0.9	-20	11	6	-9
Cc1ccccc1OCC(O)Cn1c(NCc2ccco2)nc2c1c(=O)n(C)c(=O)n2C (stereo not drawn)	-1	-0.4	-17	-10	8	4
O=C(COc1ccccc1)NCc1ccc2c(c1)OCO2	12	0.0	0	96	-6	-10
CCN(CC(=O)Nc1ccc(NC(C)=O)cc1)C(=O)c1ccc(N(C)S(=O)(=O)c2ccc(C)cc2)cc1	0	-0.8	1	1	x	0
O=C(CCc1nc2ccccc2[nH]1)N1CCc2ccccc2C1	-3	0.2	6	-24	8	-9
CCN(CC)CCCC(C)NC1=NCCCCC1 (stereo not drawn)	7	-0.3	1	-1	-12	-13
COc1ccc(CN2CCC(n3nccc3NC(=O)c3cccc(F)c3)CC2)cc1O	-8	-0.2	0	2	5	-22
COc1ccccc1C(=O)COC(=O)C(NC(=O)Cc1ccccc1)C(C)C (stereo not drawn)	-13	1.0	7	x	x	-7
O=C(O)C1(Nc2ccccc2Cl)CCCC1	2	-0.4	-1	8	x	-2
C#CCOCCOCCOCCNc1nc(N2CCN(C(=O)[C@H](CCCCN)n3cc(CN)nn3)CC2)nc(N2CCN(C(=O)[C@H](CCC(=O)O)n3cc([C@@H](N)[C@H](C)CC)nn3)CC2)n1	21	-0.6	6	-8	x	x
COc1cc(N2CCC(O)CC2)ccc1Nc1nnc(Cl)c(Nc2ccccc2S(C)(=O)=O)n1	3	-0.3	-7	-12	x	7
CC(=O)c1ccc(NC(=O)N[C@@H](CC(C)C)C(=O)O)cc1	9	-0.9	1	-1	-1	-22
O=C(CSc1ccc(Cl)cc1)Nc1ccccc1N1CCN(C(=O)c2ccc(Cl)cc2)CC1	76	0.9	4	3	27	-5
N#CC1=C(O)C(c2ccccc2)n2c1nc(=O)c1ccccc12 (stereo not drawn)	14	-0.7	5	-2	7	6
CCCC(=O)N(c1ccc2oc(C)c(C(C)=O)c2c1)S(=O)(=O)c1ccc(C)c([N+](=O)[O-])c1	-14	-0.4	-5	3	-17	-13
COc1ccccc1CN=C1NC(=O)C(CC(=O)Nc2ccc(OC)c(OC)c2)S1 (stereo not drawn)	4	-0.4	-8	-10	0	-8

2 entries from above, as labelled records:
CCCC(=O)N(c1ccc2oc(C)c(C(C)=O)c2c1)S(=O)(=O)c1ccc(C)c([N+](=O)[O-])c1
  TRPML1 inh: -14; TRPML1 ag: -0.4; Six1-Eya2 inh: -5; CtBP-E1A blk: 3; TRPV1 potentiator: -17; D2 PAM: -13
O=C(O)C1(Nc2ccccc2Cl)CCCC1
  TRPML1 inh: 2; TRPML1 ag: -0.4; Six1-Eya2 inh: -1; CtBP-E1A blk: 8; TRPV1 potentiator: x; D2 PAM: -2

(next part)
SMILES	TRPML1 inh	TRPML1 ag	Six1-Eya2 inh	CtBP-E1A blk	TRPV1 potentiator	D2 PAM
CC(=O)Oc1ccccc1/C=C1\CCOC1=O	-1	0.1	4	7	5	5
COc1cccc(NC(=O)Cc2nnc(SCC(=O)NC3CCCC3)n2C)c1	5	0.3	3	15	0	-30
NS(=O)(=O)c1ccc(NC(=O)c2ccc(CNS(=O)(=O)c3cc(C(F)(F)F)ccc3Cl)cc2)cc1	1	-0.7	4	6	-2	-3
Cc1cccc(OCc2nnc(SCc3cc(=O)n4cc(Br)ccc4n3)o2)c1	6	0.1	0	-2	-3	7
CCOC(=O)C1CCN(S(=O)(=O)c2ccc(C)c(C)c2)CC1	-11	0.0	10	1	0	-1
COCCCN(C(=O)Cc1ccc(Cl)c(Cl)c1)c1c(N)n(Cc2ccccc2)c(=O)[nH]c1=O	x	x	0	4	8	-1
CC(=O)c1cc2c(cc1NC(=O)CCn1cnnn1)OCO2	-18	0.7	-6	-2	4	-9
O=C(O)c1ccc(/C=N/NC(=O)c2ccc3c(c2)OCCO3)cc1	-15	-0.5	-3	x	10	-6
CCOC(=O)C(C(=O)OCC)N(C#N)c1nc(SC)nc(N(C)C)n1	1	-0.9	-1	-2	4	-9
Cc1nc2c(C)cccc2c2c1CCN2c1ccccc1F	-15	-0.9	13	-7	u	-10
Cn1c(Cc2csc(N)n2)nnc1SCC(=O)NCc1ccccc1	2	-0.2	-27	-15	-21	1
CS(=O)(=O)Nc1ccc(C(=O)Nc2ccccc2C(=O)N2CCCC2)cc1	-13	-0.8	13	-5	-19	-1
O=C(O)c1sccc1S(=O)(=O)N1CCOCC1	-13	-0.6	4	x	18	3
C/C(N)=C(/C#N)C(=O)CSc1nc2ccc(C)cc2[nH]1	-15	-0.2	-5	-17	2	1
CS(=O)(=O)N1CCC(C(=O)Nc2ccc(F)c(Cl)c2)CC1	12	-0.2	2	-3	1	-23
CCCCCCn1c(CN2CCCC(C)C2)nc2c1c(=O)n(C)c(=O)n2C (stereo not drawn)	-8	5.6	0	4	-7	20
Cc1ccc(C(=O)NC2CCCCCC2)o1	12	-0.7	-1	1	-11	8
COc1cc(C)c(-c2[nH]ncc2-c2csc(C)n2)c(O)c1	-7	0.2	4	6	-3	0
Cn1c(=O)c2cc(S(=O)(=O)NC(C(=O)Nc3cccc(F)c3)c3ccccc3)ccc2n(C)c1=O (stereo not drawn)	-9	0.4	-7	5	-23	-1
CCn1c(NC(=O)c2ccccc2)c(-c2cccs2)c(=O)c2ccccc21	6	0.4	0	0	14	-10
O=C(CSc1nc2ccc([N+](=O)[O-])cc2[nH]1)c1ccc2ccccc2c1	-5	4.0	-7	-9	u	-4
Cc1ncc(CN2CCN(C3CCCC3)C(CCO)C2)s1 (stereo not drawn)	3	0.1	-17	5	13	-28
Cc1cccc(-c2noc(-c3c(C)noc3C)n2)c1	-20	1.3	5	4	x	-4
O=C(NC1CCN(S(=O)(=O)c2ccccc2)CC1)c1ccccc1	x	x	-1	x	-1	-4

Copied from the listing, three compounds:
SMILES	TRPML1 inh	TRPML1 ag	Six1-Eya2 inh	CtBP-E1A blk	TRPV1 potentiator	D2 PAM
Cc1ncc(CN2CCN(C3CCCC3)C(CCO)C2)s1 (stereo not drawn)	3	0.1	-17	5	13	-28
Cc1cccc(-c2noc(-c3c(C)noc3C)n2)c1	-20	1.3	5	4	x	-4
O=C(NC1CCN(S(=O)(=O)c2ccccc2)CC1)c1ccccc1	x	x	-1	x	-1	-4

Looked up by structure from above:
SMILES	TRPML1 inh	TRPML1 ag	Six1-Eya2 inh	CtBP-E1A blk	TRPV1 potentiator	D2 PAM
Cn1c(Cc2csc(N)n2)nnc1SCC(=O)NCc1ccccc1	2	-0.2	-27	-15	-21	1
CC(Oc1ccc(Cl)cc1Cl)C(=O)Nc1cccnc1 (stereo not drawn)	5	-0.7	21	24	-6	-11

Bioassay records: PubChem, National Center for Advancing Translational Sciences (NCATS)
